NPYLR7 ag – mosquito NPYLR7 agonism; HEK293T NPYLR7/Galpha15, GCaMP6s calcium fluorescence; activation, % at 10 µM; 270,000 tested, 0.15% active; in the data active = activation above about 40%;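 note: 0% = vehicle and 100% = reference agonist at the receptor; some compounds past the cut are filed as inactive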
NPYLR7 ag max-min – further read-out of NPYLR7 ag, marked with its call; activation, %; measured here: Max-Min RFU normalised activation; some inactives read as strong as hits;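 span of the calcium signal over five minutes; 0% = vehicle and 100% = native peptide agonist; compound fluorescence can raise it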
* marks the source's active call; other numbers are inactive results; & = joins results of further samples. An excerpt, so the mix of outcomes need not match the whole.

SMILES | NPYLR7 ag | NPYLR7 ag max-min
O=C1CC2CS(=O)(=O)CC2N1c1ccc(Br)c(C(F)(F)F)c1 (stereo not drawn) | 1 | 17
COc1cc(OC)c(Nc2c(C#N)cnc3ccccc23)cc1Cl | -2 | -4
O=C(CCl)N1CCN(S(=O)(=O)c2ccc3c(c2)OCCO3)CC1 | 0 | -3
Cn1c2nc3ccccc3nc2c2c(=O)n(Cc3ccccc3)cnc21 | -4 | -6
CN(C)c1ccc(CNS(=O)(=O)c2cccs2)cn1 | -4 | -2
Cc1nc(SCC(=O)NN=Cc2ccc(Cl)cc2)c2ccccc2n1 | 18 | 7
CCn1c(C)cc(C(=O)NCc2ccccc2-n2ccnc2)c1C | 22 | 15
CCCN(CCC)CC(O)COc1ccc2c(c1)OCO2 (stereo not drawn) | 0 | -1
CC(C)CCn1nc(C(=O)Nc2ccccc2C(C)(C)C)c2ccccc2c1=O | -2 | -3
O=C(c1ccc(Br)s1)N(CCCn1ccnc1)c1nc2ccccc2s1 | -16 | -21
Cn1c(C(C#N)(CC(=O)N2CCCCC2)CC(=O)N2CCCCC2)nc2ccccc21 | -4 | -3
CCN(CC)C(=O)Oc1ccc2c(ccn2Cc2ccc(Cl)cc2)c1NC(=O)c1cc(C)on1 | 0 | -6
C=C(C)c1nc2cc(OC)c(OC)cc2c(=O)o1 | 8 | 7
O=C(NC1CCN(Cc2cccnc2)CC1)c1ccc(CSc2ncn[nH]2)o1 | 1 | -4
O=[N+]([O-])c1cc(S(=O)(=O)N2CCCC2)ccc1N1CCN(c2ncccn2)CC1 | 4 | 3

Looked up by compound from the entries so far (3):
SMILES | NPYLR7 ag | NPYLR7 ag max-min
Cn1c(C(C#N)(CC(=O)N2CCCCC2)CC(=O)N2CCCCC2)nc2ccccc21 | -4 | -3
O=C(c1ccc(Br)s1)N(CCCn1ccnc1)c1nc2ccccc2s1 | -16 | -21
CCn1c(C)cc(C(=O)NCc2ccccc2-n2ccnc2)c1C | 22 | 15

Other structures.
SMILES | NPYLR7 ag | NPYLR7 ag max-min
CCOc1ccc(-c2onc(C)c2-c2ccc(OC)cc2)c(O)c1 | 1 | -5
COc1ccccc1-c1cc(C(=O)NC(C)C)nc2cc(-c3ccc(Cl)cc3)nn12 | 20&-12 | 26&-10
O=c1c2nnn(-c3ccccc3)c2ncn1Cc1c(F)cccc1Cl | -2 | -3
COc1cc2c(cc1OC)C(c1cccs1)N(CC(=O)NC(C)c1ccccc1OC)CC2 (stereo not drawn) | 2 | 5
CCOC(=O)c1c(C)n(-c2cccc(C)c2)c2c1cc(O)c1ccccc12 | 2 | 2
COc1cc(Cl)ccc1OCc1cc(C(=O)N2CCN(C3CCCCC3)CC2)no1 | 11 | 2
CCOc1ccc(S(=O)(=O)N=c2sc3cc(OC)ccc3n2C(F)F)cc1 | 13 | 9
O=c1[nH]c(-c2ncn[nH]2)nc2ccc(-c3ccccc3)cc12 | 5 | 2
COC(=O)C1=C(C)NC(C)=C(C(=O)OCCN(C)Cc2ccccc2)C1c1cccc([N+](=O)[O-])c1 (stereo not drawn) | -2&-16&-3&-13&-1 | -7&-18&-9&10&7
COc1ccccc1C(=O)N1CCN(c2nc(C)nc(C)c2Cc2cccc(C(F)(F)F)c2)CC1 | 4 | 13
Fc1cccc(-c2nccn2CCCc2ccncc2)c1F | 10 | 8
COc1ccc(C(CC(=O)N2CCN(c3cnccn3)CC2)c2ccccc2)cc1 (stereo not drawn) | 5 | 3
Fc1ccc(Oc2cc(N3CCCC3)ncn2)c(F)c1 | -8 | 2
NCCc1nc(NCC(c2ccccn2)N2CCOCC2)c2ccccc2n1 (stereo not drawn) | -3 | -5
Cc1ccc(-c2n[nH]c(=S)n2CCC(=O)NC(C)c2ccccc2Br)cc1 (stereo not drawn) | -6 | -5
Cc1nc(N2CCOCC2)c2sc(=S)n(C)c2n1 | 1 | 1
CS(=O)(=O)N(c1ccc(Br)cc1)S(=O)(=O)c1ccc(Cl)c([N+](=O)[O-])c1 | 2 | 2
O=C(c1ccc(=O)[nH]c1)N1CCN(C(=O)c2cc3ccccc3o2)CC1 | 4 | 0
COc1cc(CN(C)C(=O)c2cc(N3CCOCC3)nc3ccccc23)cc(OC)c1OC | 13 | 6
O=c1c(NCc2ccc(F)cc2)nccn1Cc1ccc(Cl)cc1 | 4&-4 | 1&-5
Cc1ccc2nc(C(C#N)=Cc3ccc4c(c3)OCO4)[nH]c2c1 | 4 | 3
COC(=O)c1ccc(NC(=O)c2nnn(Cc3ccc(C)cc3)c2N)cc1 | 0 | 7
Cc1c(-n2c(-c3ccc(Cl)cc3)cs/c2=N/Nc2ccccc2)c(=O)n(-c2ccccc2)n1C | 3 | 5
CCOc1ccccc1N1CCN(C(=O)CCc2nnc(-c3ccc4c(c3)OCO4)o2)CC1 | -3 | -6
Cn1c(=O)c2c(nc(N3CCN(Cc4ccccc4)CC3)n2Cc2ccccc2Cl)n(C)c1=O | -1 | -1
Cc1c(C(=O)NCc2ccc(C#N)cc2)sc(=O)n1Cc1ccccc1 | 43 | 37
CCN(CC(=O)NC(C)C)C(=O)CSc1nnc(-c2ccc(Cl)cc2)n1C | 7 | 3
O=C(c1ccccc1OC(F)(F)F)N1CCC(Cc2ccc3c(c2)OCO3)CC1 | -1 | 4
O=C(NCc1ccc2c(c1)OCO2)c1cccs1 | 1 | 1
Fc1ccccc1CSc1ncnc2c1nnn2Cc1ccccc1F | 15 | 13
COc1ccc(-c2ccc(NC(=O)c3sc(-c4ccccc4)nc3C)cc2)nn1 | -3 | -5
CN(CC1CCCCC1)S(=O)(=O)c1ccc(NS(C)(=O)=O)cc1F | 2 | 3
Cc1ccc(C)c(S(=O)(=O)C2(C(=O)Nc3cc(S(C)(=O)=O)ccc3C)CCCC2)c1 | 0 | -2
Cc1ccc2cc(C(=O)N3CCC(OCCN4CCOCC4)C3)[nH]c2c1 (stereo not drawn) | 0 | -4
Cc1oc(-c2ccc(F)cc2F)nc1CN1CCN(c2ccccc2Cl)CC1 | 6 | 0
COCCNC(=O)c1sc2ccc3ccccc3c2c1Cl | -14 | -2
COc1ccc(-c2nccc3[nH]nc(-c4ccncc4)c23)cc1OC | 2 | 1
O=C(c1ccc(C(F)(F)F)cc1)C1CCCN(C(=O)/C=C/c2ccncc2)C1 (stereo not drawn) | 18 | 5
CCCSc1ncccc1C(=O)Nc1ccc(OC)nc1 | -5 | -8
CN1C(=O)c2cccc(NC(=O)c3cc(Cl)cc(Cl)c3)c2C1=O | -2 | -6
CN(C)S(=O)(=O)N1CCC(Oc2ccc(C(=O)NCc3cccs3)cc2)CC1 | -23 | -19
C=CCN1C(=O)C(=Cc2ccccc2OC)SC1=S | 4 | 1
O=C(NC1CC1)C1CCCN(C2CCN(CC3CCCCC3)CC2)C1 (stereo not drawn) | 2 | -2
Cc1cc(C(C)Nc2ccccc2)c2nc(N3CCOCC3)cc(=O)n2c1 (stereo not drawn) | -12 | -14
CC(O)CNC(Cc1ccccc1)c1nc(-c2ccc([N+](=O)[O-])cc2)no1 (stereo not drawn) | 3 | 2
Cc1ccc(NC(=O)C2(C)CCN2Cc2csc3ccccc23)cc1 (stereo not drawn) | 2 | 0
CCc1ccc(-n2c(C)cn3c4c(=O)n(CCN5CCOCC5)c(=O)n(C)c4nc23)cc1 | 4 | 2
O=C(OCC(=O)N1CCN(C(=O)Nc2ccccc2)CC1)C1CCCO1 (stereo not drawn) | -4 | -6
Cc1nccn1CC(C)OC(=O)CC(C)(C)C (stereo not drawn) | 23 | 12
CC(=O)c1ccc(C(=O)N(CCN2CCOCC2)c2nc3c(F)cc(F)cc3s2)cc1 | 12 | 9
CC1CC1c1ccc(CN(C)S(=O)(=O)c2cc3c(cc2Cl)NC(=O)CO3)o1 (stereo not drawn) | 0 | 0
Cc1cc(CSc2ccc3c(c2)NC(=O)CO3)no1 | 1 | 0
CC(C)N(CC(=O)N(CCc1c[nH]c2ccccc12)Cc1ccc(C(C)(C)C)cc1)Cc1ccco1 | 3 | 4
CN(C)c1ncccc1N(C)C(=O)C1CSc2ccccc21 (stereo not drawn) | 5 | 1
C=C(C)COc1ccccc1C(=O)N(C)CC(C)N1CCOCC1 (stereo not drawn) | -10 | -15
Cc1nn(CC(=O)N2CCCC(c3ccn[nH]3)C2)c(=O)c2ccccc12 (stereo not drawn) | 15 | 12
S=c1nc(-c2ccc(Br)cc2)[nH]c2ccccc12 | -5 | -6
OCC#Cc1csc(C2NCCc3[nH]cnc32)c1 (stereo not drawn) | -1 | -3
CCOC(=O)CNC(=O)c1ccc(-c2cc(-c3ccc(N4CCCCC4)cc3)n[nH]2)cc1 | 7 | -1
CCCC(=O)N1CCCC1(C)C(=O)Nc1cccc(OC(C)C)c1 (stereo not drawn) | 4 | 0

In the list so far, these contain a nitro group on carbon.
SMILES | NPYLR7 ag | NPYLR7 ag max-min
O=[N+]([O-])c1cc(S(=O)(=O)N2CCCC2)ccc1N1CCN(c2ncccn2)CC1 | 4 | 3
COC(=O)C1=C(C)NC(C)=C(C(=O)OCCN(C)Cc2ccccc2)C1c1cccc([N+](=O)[O-])c1 (stereo not drawn) | -2&-16&-3&-13&-1 | -7&-18&-9&10&7
CS(=O)(=O)N(c1ccc(Br)cc1)S(=O)(=O)c1ccc(Cl)c([N+](=O)[O-])c1 | 2 | 2
CC(O)CNC(Cc1ccccc1)c1nc(-c2ccc([N+](=O)[O-])cc2)no1 (stereo not drawn) | 3 | 2

Additional compounds:
SMILES | NPYLR7 ag | NPYLR7 ag max-min
CCOc1ccc2oc(-c3ccc(OC)cc3)c(C(=O)O)c2c1 | -4 | -6
COc1cccc(-c2cc(C(=O)N3CCN(c4ccccc4Cl)CC3)n(-c3ccccc3)n2)c1 | 7 | 20
Cc1cccc(C(=O)N2C(C(=O)NCC(C)C)COC23CCN(C(=O)c2ccc(F)cc2F)CC3)c1 (stereo not drawn) | 2 | 7
CCNC(=O)N1C[C@H](C(N)=O)[C@H]2c3ccccc3N(C)C(=O)[C@]21C | 22 | 33
Cc1cccc(-c2cc(N)n(-c3ccc(C(=O)Nc4ccccc4Nc4ccccc4)cc3)n2)c1 | 20 | 1
Cc1cccc(CN2CCCC(C(=O)Nc3cccc(-n4cccn4)c3)C2)n1 (stereo not drawn) | 5 | 3
COc1ccc(CNC(=O)Cc2ccc3c(c2)CCCC3)cn1 | 3 | -1
CC1(Cc2ccccc2C#N)C(=O)Nc2c(Cl)ccc(Cl)c21 (stereo not drawn) | -1 | -6
O=C(c1ccccc1)N1CCCC(Nc2ccccc2)C1 (stereo not drawn) | 4&1 | -1&0
CC(=O)c1c[nH]c(C(=O)Nc2ccc(OC(F)F)cc2)c1 | 10 | 8
C1=CC2CC1CC2CN1CCN(Cc2cccnc2)CC1 (stereo not drawn) | 10 | 4
Cc1c(C(=O)NCCN2CCOCC2)cc(-c2ccccc2)n1-c1ccc(F)cc1 | -4 | 4
CCOC(=O)c1c(N=c2oc3c(OC)cccc3cc2-c2nc3ccccc3[nH]2)sc2c1CCCC2 | -2 | 0
Cc1ccc(C(C)C)c(OCC(O)Cn2nc(C)c(Br)c2C)c1 (stereo not drawn) | -2 | -5
COc1ccc(NC(=O)c2sc(=O)n(Cc3ccccc3F)c2C)cc1 | 3 | -1
CC1(C(=O)Nc2cccc(NS(C)(=O)=O)c2)CCN1Cc1ccc2ccccc2c1 (stereo not drawn) | 11 | 1
COCCN(Cc1ccc(OC)cc1)c1c(C)nc2ccc(C(=O)N3CCNC(=O)C3)cn12 | -4 | -9
COCCNC(=O)C1CCC(C)N(S(=O)(=O)c2cc(Cl)ccc2C#N)C1 (stereo not drawn) | 6 | 4
Cc1ccc(C)c(NC(=O)CNc2ccc(C#N)cc2)c1 | 8 | 11
CC(=O)Nc1ccc(N=C/C=C/c2ccc(Cl)cc2Cl)cc1 | 3 | -1
CCCN1C(=O)C(=Cc2c(NCCc3ccccc3)nc3ccccn3c2=O)SC1=S | 4 | 3
O=C(/C=C/c1ccccc1)N1CCc2nc(-c3ccccc3)nc(N3CCCCC3)c2C1 | -2 | 4
CN(Cc1ccc(C(F)(F)F)cc1)c1ncnc(Cl)c1N | -5 | -7
Cc1nc(N2CCOCC2)nc(N2CCCCC2C)c1[N+](=O)[O-] (stereo not drawn) | 0 | 0
COCCCN(CC(=O)N(CCc1c[nH]c2ccccc12)Cc1ccc(OC)c(OC)c1)C(=O)c1ccc([N+](=O)[O-])cc1 | 15 | 13
CN1CC2(CCCN(c3noc(-c4ccccc4)n3)CC2)OC1=O (stereo not drawn) | -2 | 9
C/C(=N/N=C1\NC(=O)C(CC(=O)Nc2ccc(C)c(Cl)c2)S1)C(C)C (stereo not drawn) | 3 | 2
COc1ccc(-c2n[nH]c(=S)n2-c2cccc(C)c2)cc1OC | -6 | 0
COc1cccc(-n2c(O)c(C3=c4ccccc4=NC3=O)sc2=S)c1 | 22 | 24
O=c1c(Cl)c(Nc2ccc3c(c2)CCC3)cnn1-c1ccccc1 | 2 | 4
O=C1Cc2cc(S(=O)(=O)NC3CCCCC3)ccc2N1 | 2 | 2
Cn1c(SCC(=O)Nc2cccc(Br)c2)nc2c(-c3ccccc3)c[nH]c2c1=O | -3 | -9
C=C(C)Cn1c(=O)c2c(nc3n(Cc4ccccc4)c(C)c(C)n23)n(C)c1=O | 1 | -4
CN(Cc1ccccc1F)C(=O)CSc1nnc(-c2ccccc2)n1C | 15 | 12
CC(=O)N1CCN(Cc2ccc(C(=O)Nc3ccccc3)cc2)CC1 | 13 | 11
Cc1nc(CN2CCN(C(=O)c3cc(COc4cncc(Cl)c4)on3)CC2)cs1 | 5 | 2
CCc1cc(NC(=O)NC2CCOC2c2ccccc2)n(C)n1 (stereo not drawn) | 4 | 1
Cc1cccc(S(=O)(=O)Nc2nc(-c3cc(C(N)=O)oc3C)cs2)c1 | -2 | -3
O=C(Nc1ccc2c(c1)CN(C(=O)c1cnccn1)CC2)c1ccccc1Cl | 5 | 2
O=C(CSc1nnc(-c2cccs2)n1C1CC1)c1cc(Cl)sc1Cl | 1 | 3
Cc1ccccc1C(=O)N[C@@H]1CCCCC1NC(=O)C1CCCN(C(=O)c2cccs2)C1 (stereo partly drawn) | 3 | 7
